2A Renilla = lowers the Renilla signal of an FMDV 2A StopGo reporter | HEK cells with a luciferase reporter of 2A StopGo recoding | actives 0.32% (n = 120,000) | Potency, µM (top dose mostly 57.5 µM), for inactives: at the highest dose signal change, negative = less light; active means well fitted falling curve with a large enough effect; inconclusive means small, poorly fitted or top-dose-only effect; inactive means no such curve, though single readings can be large or run the other way; also: nearly all actives have a fitted effect of over 55% in size; overnight with compound
StopGo FLuc = lowers the firefly signal of an FMDV 2A StopGo reporter; HEK cells with a luciferase reporter of 2A StopGo recoding; Potency, µM (series often up to 57.5 µM), for inactives: at the highest dose signal change, negative = less light; actives 0.23% (n = 120,000); AID 1745856; active = well fitted falling curve with a large enough effect; inconclusive = small, poorly fitted or top-dose-only effect; inactive = no such curve, though single readings can be large or run the other way; also: nearly all actives have a fitted effect of over 60% in size; overnight with compound
Starred values were filed as active, the others as inactive; ? = inconclusive; [ ] = remark or other dose. % is scaled to controls: 0 for no effect and ±100 for the full control effect; potency is read from the fitted curve at half-maximal effect.

SMILES | 2A Renilla | StopGo FLuc
CCCn1nc(C(=O)NCc2ccccc2OC)c2ccccc2c1=O | 46%[activator] | 15%
Cc1ccc(NC(=O)Cn2c(=O)c3c(ncn3CC(C)C)n(CC(C)C)c2=O)cc1F | 15% | 5%
CC(SC1CCCC1)C(=O)Nc1ccc2c(c1)CCC2 (stereo not given) | 11% | 46%[activator]
N#Cc1cccc(C(=O)c2ccc3c(c2)OCCO3)c1 | 5% | 47%[activator]
O=C1CCCC2=C1C(c1cccs1)CC(=O)N2c1cccc(C(F)(F)F)c1 (stereo not given) | 11% | 5%
C[C@]12C/C(=C/O)C(=O)C[C@@H]1CC[C@@H]1[C@@H]2CC[C@@]2(C)[C@H]1CC[C@]2(C)O | -2% | 14%[11.5 µM]
COc1ccc(C)cc1NC(=O)C1CCN(S(=O)(=O)c2c(C)noc2/C=C/c2ccco2)CC1 | -10% | -18%
CCC(CC)C(CNC(=O)Cc1n[nH]c(=O)c2ccccc12)N1CCOCC1 (stereo not given) | -9% | -4%
Cc1cccc2c(=O)c(-c3cccc4ccccc34)c(N)oc12 | -9% | 0%
Cc1ccc(NC(=O)Cc2ccc(-n3c(C)nc4cccnc43)cc2)c(Cl)c1 | 10µM* | 14µM*
CC(C)(C)CNC(=O)c1nc[nH]c1C(=O)N1CCCCC1 | 12% | 0%
Cc1cccc(NC(=O)Cn2c(=O)n(Cc3ccccc3)c(=O)c3sc4ccccc4c32)c1 | -8% | -6%
O=C(CSc1nc(-c2ccccc2)nc2cc(=O)[nH]n12)Nc1ccccc1 | -12% | -3%
O=C(O)c1ccc(S(=O)(=O)NCc2ccco2)cc1 | -1% | -8%
Cc1ccc(CNC(=O)CCC(=O)N2CC3CCCN3c3ccccc32)cc1 (stereo not given) | -17% | -32%
CC(C)N1CCC(NC(=O)c2cn(Cc3ccccc3)c3ccccc23)CC1 | -16% | -18%
CNc1sc(C(C)=O)cc1C | 4% | 0%
Cc1nn(CC(=O)Nc2ccc3c(c2)nc2n3CCN(C)C2)c(=O)c2ccccc12 | 4% | -8%
Cc1ccc(-n2ncc(C(=O)N3CCCCC3)c2C2CCN(C(=O)OC(C)(C)C)CC2)cc1C | -11% | -19%
COC(=O)COc1cc2oc(=O)cc(C)c2cc1Cl | -2% | 3%
CCCC(=O)N1CCc2cc(OC)c(OC)cc2C1COc1ccccc1OC (stereo not given) | 18% | 10%
O=C1/C(=C/c2ccccc2)Cc2ccccc21 | 26% | 109%[activator]
N#Cc1cc2c(cc1C(=O)c1ccccc1)OCCO2 | -3% | -3%
CCN(C(=O)CCS(=O)(=O)c1ccc2c(c1)oc(=O)n2C)c1ccc(OC)cc1 | -7% | -6%
CC(=O)NCC(=O)O | 13% | 16%

Individual results from the results shown.
Under 2A Renilla, CNc1sc(C(C)=O)cc1C is entered as 4%
Under 2A Renilla, Cc1ccc(CNC(=O)CCC(=O)N2CC3CCCN3c3ccccc32)cc1 (stereo not given) is entered as -17%
Under StopGo FLuc, O=C1CCCC2=C1C(c1cccs1)CC(=O)N2c1cccc(C(F)(F)F)c1 (stereo not given) is entered as 5%
Under StopGo FLuc, Cc1nn(CC(=O)Nc2ccc3c(c2)nc2n3CCN(C)C2)c(=O)c2ccccc12 is entered as -8%
Under StopGo FLuc, COC(=O)COc1cc2oc(=O)cc(C)c2cc1Cl is entered as 3%
Under 2A Renilla, COc1ccc(C)cc1NC(=O)C1CCN(S(=O)(=O)c2c(C)noc2/C=C/c2ccco2)CC1 is entered as -10%
Under StopGo FLuc, CC(SC1CCCC1)C(=O)Nc1ccc2c(c1)CCC2 (stereo not given) is entered as 46%[activator]

Continuation.
SMILES | 2A Renilla | StopGo FLuc
Cc1ccc(CNC(=O)CC(C)CC2=NS(=O)(=O)c3ccccc3N2)cc1 (stereo not given) | 29% | -12%
Cc1nn2c(C)c(C(=O)NCc3ccco3)cnc2c1-c1ccccc1 | -7% | -9%
CC(NC(=O)c1c(O)nc2ccccn2c1=O)c1ccccc1 (stereo not given) | -11% | -11%
CCOC(=O)c1ccccc1NC(=O)C1CCN(c2ncnc3c2nc2n3CCCCC2)CC1 | 18% | 12%
COc1cccc(N(C)C(=S)Oc2ccc3c(c2)CCCC3)n1 | 19% | -9%[11.5 µM]
O=C(CSc1nc2ccc(Cl)cc2[nH]1)Nc1ccc(S(=O)(=O)N2CCCCC2)cc1 | 12% | -12%
Cc1ccc(Cl)c2sc(NC(=O)CS(=O)(=O)c3ccc(Cl)cc3)nc12 | 8% | 0%
CCc1nn(CC(=O)NCc2ccco2)c(=O)c2cc3c(OC)cccc3n12 | 16% | 13%
Cc1cc2c(c3oc(=O)c4ccccc4c13)CN(Cc1ccc(F)cc1)CO2 | 20% | 0%
CCn1c(=O)n(CC)c2cc(N3CCCC3)c(NC(=O)Nc3cc(Cl)c(OC)cc3OC)cc21 | 10% | 11%
Cc1nnc(SCC(=O)NCCc2ccco2)c2nn(-c3ccc(Cl)cc3)c(C)c12 | -10% | -6%
Cc1cccc(C)c1NC(=O)c1ccc2ncsc2c1 | 5% | 22µM*
COc1cccc(CCNC(=O)c2cnc3sc(N4CCCC4)nn3c2=O)c1 | -8% | -12%
CCOC(=O)c1c(NC(=O)c2ccc(S(=O)(=O)N3CCCC(C)C3)cc2)sc2c1CCN(C(C)C)C2 (stereo not given) | 36%[activator] | -12%
O=C(NC1(C(F)(F)F)NC(=O)N(CCc2ccccc2)C1=O)c1ccccc1Cl (stereo not given) | 10% | 13%
O=C(COC(=O)c1cnccn1)Nc1ccc(Cl)cc1C(F)(F)F | 2% | 6%
c1ccc(SCc2nnc3sc(-c4ccco4)nn23)cc1 | 18% | 91%[activator]
COc1ccc(OC)c(NC(=O)C(NS(=O)(=O)c2ccc3c(c2)CCCC(=O)N3)C(C)C)c1 (stereo not given) | -15% | -23%
COCCCNC(=O)c1ccc2c(c1)NC(=O)C(C(C)C)N2 (stereo not given) | -7% | -9%
Cn1c(=O)c2c(nc(Cl)n2Cc2cccc(Cl)c2)n(C)c1=O | ? | ?
O=C(NCc1ccoc1)Nc1cccc(C(=O)N2CCCC2)c1 | -31% | 24%
O=C(O)C/C(=C/c1ccc(C(=O)O)cc1)c1nc2ccccc2s1 | 8% | 8%
CC(C)c1ccc2c(c1)-c1ccccc1S(=O)(=O)N2CC(=O)NCc1ccncc1 | 184%[activator] | 0%
Cc1cc(C)c(NC(=O)c2ncoc2-c2cccc(Cl)c2)c(C)c1 | 1% | 8%
CCn1c(SCC(=O)Nc2ccc3c(c2)OCO3)nc2c(-c3ccc(C)cc3)csc2c1=O | -5% | 4%
Later entries:
SMILES | 2A Renilla | StopGo FLuc
N#Cc1ccc(S(=O)(=O)N2CCCCC2C(=O)N2CCCC2)cc1 (stereo not given) | -10% | -6%
CC(C)N(Cc1cn(Cc2ccccc2)nn1)S(=O)(=O)c1ccc(F)cc1Br | ? | ?
COc1ccc2c(C)c(CC(=O)NCc3ccc(C)cc3)c(=O)oc2c1 | -2% | 1%
Cc1nc(Nc2nc3ccccc3o2)ncc1C(=O)Nc1ccccc1 | 11% | 146%[activator]
COc1cc(NC(=O)Cn2ncc3c([nH]c4ccc(C)cc43)c2=O)cc(OC)c1OC | -14% | -17%
Cc1cc(C)c(NC(=O)Cn2nnc(C(=O)Nc3ccc(F)cc3F)c2N)c(C)c1 | 4% | -8%
CCOc1ccc2nc(NC(=O)CCNC(=O)c3ccc(F)cc3Cl)sc2c1 | 8% | 89%[activator]
COc1ccccc1-n1cnc2sc3c(c2c1=O)CCCC3 | 0% | 30%[activator]
CNc1c(NC(=O)NCCCOC)c(=O)oc2ccccc12 | -7% | -4%
COc1ccccc1-n1nnc(C(=O)OCc2cc(C)ccc2C)c1C | 196%[activator] | 10%
CCOc1ccc(-c2[nH]ncc2-c2ccccc2OC)c(O)c1 | 0% | 20%
CN(C)c1ccc(C(CNC(=O)COc2ccc(Cl)cc2)N2CCOCC2)cc1 (stereo not given) | -6% | -10%
Cc1cccc(C(=O)NC(C)c2ccc(OC(F)F)cc2)n1 (stereo not given) | 3% | 0%
CCCCC1c2cc(c(O)cc2O)C(CCCC)c2cc(c(O)cc2O)C(CCCC)c2cc(c(O)cc2O)C(CCCC)c2cc1c(O)cc2O (stereo not given) | -14% | -15%
CC1CCN(c2nc3nonc3nc2Nc2ccc(F)cc2)CC1 | ? | ?
COCCNC(=O)CSc1cc(C)c2ccc(OC)cc2n1 | -4% | 1%
COc1ccccc1NC(=O)c1oc2ccccc2c1NC(=O)c1c(F)cccc1F | -10% | 36%[activator]
CC(NC(=O)c1ccc2nc(Cc3ccccc3)oc2c1)c1ccccc1 (stereo not given) | 38%[activator] | -5%
Cn1c(COc2ccc(Cl)cc2)nnc1SCCn1cccn1 | 17% | 22%
CCN(CC)C(=O)CSc1nc(N2CCCC2)c2c(c1C#N)CCCC2 | 28% | -2%
COc1cccc(OC)c1OCc1cc(-c2ccco2)on1 | 32%[activator] | 76%[activator]
COc1ccc(-c2cc3c(=O)[nH]nc(SCC(=O)N4CCCC4)n3n2)cc1OC | -6% | -4%
Cc1ccc2c(CC(=O)Nc3nnc(C(C)C)s3)coc2c1C | 3% | -14%
O=C(CCCCCCC(=O)c1ccc(F)cc1)c1ccc(F)cc1 | -7% | -3%
COC(=O)Cc1c(C)c2ccc(OCc3ccc(F)cc3)cc2oc1=O | 19% | 104%[activator]

Part of the list above, with two lines to a compound:
Each structure is followed by: 2A Renilla	StopGo FLuc
- Cc1cc(C)c(NC(=O)Cn2nnc(C(=O)Nc3ccc(F)cc3F)c2N)c(C)c1
  4%	-8%
- COCCNC(=O)CSc1cc(C)c2ccc(OC)cc2n1
  -4%	1%
- CCOc1ccc(-c2[nH]ncc2-c2ccccc2OC)c(O)c1
  0%	20%
- COC(=O)Cc1c(C)c2ccc(OCc3ccc(F)cc3)cc2oc1=O
  19%	104%[activator]
- Cn1c(COc2ccc(Cl)cc2)nnc1SCCn1cccn1
  17%	22%
- CN(C)c1ccc(C(CNC(=O)COc2ccc(Cl)cc2)N2CCOCC2)cc1 (stereo not given)
  -6%	-10%

Next results.
SMILES | 2A Renilla | StopGo FLuc
CCN(Cc1ccccc1)c1sc(S(C)(=O)=O)nc1S(=O)(=O)c1ccc(C)cc1 | 160%[activator] | -3%
COc1c(C)cccc1C(=O)Nc1ccc(-c2nc3ccccc3o2)cc1 | 2% | 72%[activator]
CC1C(=O)N2CCCc3cc(S(=O)(=O)N(Cc4ccccc4)c4ccccc4)cc1c32 (stereo not given) | ? | ?
CCOC(=O)c1c(C)c(-c2ccccc2)n(CC(=O)Nc2cc(OC)cc(OC)c2)c1C | -26% | ?
CCOC(=O)C1CCN(C(=O)Cn2c(=O)oc3cc(S(=O)(=O)N4CCC(C)CC4)ccc32)CC1 | -7% | 5%
Cc1cc(Nc2cccc([N+](=O)[O-])c2)c2cccc(C)c2n1 | -13% | -11%
COCCCn1c(=O)c2sccc2n2c(CCCC(=O)Nc3cc(C)cc(C)c3)nnc12 | 4% | -2%
COc1ccc2oc(C(=O)OCC(=O)Nc3ccc(C(=O)N(C)C)cc3)c(C)c2c1 | 32% | 0%
COc1ccccc1NC(=O)Cn1nc2c3cc(F)ccc3n(Cc3cccc(C)c3)cc-2c1=O | -2% | -7%
CCN1CCN(C(=O)COc2ccc3c(=O)c(-c4ccccc4)coc3c2)CC1 | 3% | 0%
CCCC(C)C(=O)OCC(=O)C12CC3CC(CC(C3)C1)C2 (stereo not given) | -2%[1.06 µM] | 0%
COc1ccc(-c2cc(C(=O)OCC(=O)c3ccc(C)cc3)c3cccc(Cl)c3n2)cc1 | -14% | -7%
Cc1cccc2c1-c1sc(C(=O)N(C)c3cccc(C(F)(F)F)c3)cc1CO2 | -2% | -3%
Cc1nc2cc(NC(C)C(=O)Nc3cccc(Cl)c3)ccc2o1 (stereo not given) | 15% | 18%
Cc1cc(C(=O)NCc2ccnc(N3CCCC3)c2)on1 | -6% | 18%
O=C(O)/C=C/c1cccc(N=Cc2ccc(N3CCOCC3)cc2)c1 | 13% | 0%
Cc1ccc(CNc2oc(-c3cccc4ccccc34)nc2C#N)cc1 | 52%[activator] | 12%
CCC(C)n1c(=N)c(C(=O)NC2CCCCC2)cc2c(=O)n3ccccc3nc21 (stereo not given) | -4% | -12%
COc1cc(C#N)ccc1OCc1cc(Br)ccc1F | 0% | 0%
Cc1ccc(C(=O)C2CCN(CCC#N)CC2)c(C)c1 | 0% | 5%
CC(c1nc2ccccc2c(=O)[nH]1)N(C)CCOc1ccccc1Cl (stereo not given) | 4% | 4%
O=C1CCC(C(=O)OCc2c(Cl)cccc2Cl)=NN1 | -19% | 27%
CCNC(=O)Cn1c(CO)cnc1SCC(=O)Nc1c(C)cc(C)cc1C | -5% | -7%
CCCCCc1ccc(-c2ccc(C(=O)Oc3ccc(C(=O)OC)cc3)cc2)nc1 | 13% | 25%
Brc1ccc2oc3c(Nc4ccccc4)ncnc3c2c1 | -1% | 0%
O=C(c1ccc(F)cc1)N1CCN(Cc2nnnn2C2CC2)CC1 | -13% | -7%

Entries from the list above with a CF3 group (4):
SMILES | 2A Renilla | StopGo FLuc
O=C1CCCC2=C1C(c1cccs1)CC(=O)N2c1cccc(C(F)(F)F)c1 (stereo not given) | 11% | 5%
O=C(NC1(C(F)(F)F)NC(=O)N(CCc2ccccc2)C1=O)c1ccccc1Cl (stereo not given) | 10% | 13%
O=C(COC(=O)c1cnccn1)Nc1ccc(Cl)cc1C(F)(F)F | 2% | 6%
Cc1cccc2c1-c1sc(C(=O)N(C)c3cccc(C(F)(F)F)c3)cc1CO2 | -2% | -3%

Screens as filed in PubChem BioAssay.

The list is partial; count on the stated rates, not on these rows.
